# VDR inhibitor = blocks the human vitamin D receptor. VDR-SRC2-3 peptide fluorescence polarization, 2 h. AID 504847. hit rate 0.93% among 400,000. Potency, µM, inactives show max response, negative = inhibition, hits mostly inhibitors; active means well fitted inhibition curve with a large enough effect; inconclusive means small, poorly fitted or top-dose-only effect, or another doubt; inactive means no such curve, though single readings can be large or run the other way; further: series mostly up to about 120 µM
# Target sequence (P11473 whole entry, looked up): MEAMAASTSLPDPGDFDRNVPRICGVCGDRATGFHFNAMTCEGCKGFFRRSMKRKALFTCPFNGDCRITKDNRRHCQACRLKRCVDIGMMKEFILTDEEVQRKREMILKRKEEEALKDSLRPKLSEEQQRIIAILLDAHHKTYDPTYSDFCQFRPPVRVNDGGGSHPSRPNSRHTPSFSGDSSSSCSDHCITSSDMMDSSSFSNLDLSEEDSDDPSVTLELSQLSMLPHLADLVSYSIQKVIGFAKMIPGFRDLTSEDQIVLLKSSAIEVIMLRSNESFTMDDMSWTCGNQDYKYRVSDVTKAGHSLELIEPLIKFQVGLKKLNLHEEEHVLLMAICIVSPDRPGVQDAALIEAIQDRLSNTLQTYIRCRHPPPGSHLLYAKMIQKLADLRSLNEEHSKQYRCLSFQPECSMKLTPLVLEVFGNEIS
#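 Inhibition of the VDR/SRC2-3 peptide interaction is quantified by fluorescence polarization. Compounds (23 nl, pintool) incubate with the reagents for 2 hours at ambient room temperature.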
# * = called active by the depositor; ? = inconclusive; & = joins results of further samples. On the % scale 0 is the no-effect control and ±100 the full control effect; potency means the concentration at half of the fitted maximal effect.
# The opening seven entries (preview)
smiles | VDR inhibitor
COc1cc(C(=O)Nc2ccc(S(=O)(=O)N3CCCCC3C)cc2)cc(OC)c1OC (stereo not given) | 1%
Cc1nnc(SCC(=O)Nc2ccc3c(c2)COC3=O)n1-c1ccccc1 | -15%
CCCCCCCNC(=O)C1(CC2CC(c3ccccc3)=NO2)CCN(C(=O)c2ccccc2)CC1 (stereo not given) | ?
Cc1ccc(N2CCN(S(=O)(=O)c3cc(Br)cc4c3N(C(=O)C3CC3)CC4)CC2C)cc1 (stereo not given) | -26%
Cc1ccc(/C=C/c2nc3ccccc3n2S(=O)(=O)c2ccc(Br)cc2)cc1 | 17%
Cc1ccc(Cl)cc1N1CCN(C(=O)c2cn(C)c3ccc(S(=O)(=O)N4CCCC4)cc3c2=O)CC1 | 9%
Cc1ccc(C(=O)c2c3ccc(N)cc3nn2CCC(N)=O)cc1 | ?

# The list itself, from the first entry:
smiles | VDR inhibitor
COc1cc(C(=O)Nc2ccc(S(=O)(=O)N3CCCCC3C)cc2)cc(OC)c1OC (stereo not given) | 1%
Cc1nnc(SCC(=O)Nc2ccc3c(c2)COC3=O)n1-c1ccccc1 | -15%
CCCCCCCNC(=O)C1(CC2CC(c3ccccc3)=NO2)CCN(C(=O)c2ccccc2)CC1 (stereo not given) | ?
Cc1ccc(N2CCN(S(=O)(=O)c3cc(Br)cc4c3N(C(=O)C3CC3)CC4)CC2C)cc1 (stereo not given) | -26%
Cc1ccc(/C=C/c2nc3ccccc3n2S(=O)(=O)c2ccc(Br)cc2)cc1 | 17%
Cc1ccc(Cl)cc1N1CCN(C(=O)c2cn(C)c3ccc(S(=O)(=O)N4CCCC4)cc3c2=O)CC1 | 9%
Cc1ccc(C(=O)c2c3ccc(N)cc3nn2CCC(N)=O)cc1 | ?
Cc1c(NC(=O)C2CCCN2C(=O)c2cccs2)c(=O)n(-c2ccccc2)n1C (stereo not given) | 6%
CN(C)S(=O)(=O)N(CC(=O)NCCSCc1cccc(Cl)c1)c1ccccc1 | -6%
CCOC(=O)C(NCCCCl)c1ccccc1 (stereo not given) | 0%
CC(C)(C)n1nnnc1C(c1ccc(Cl)cc1)N1CCCc2ccccc21 (stereo not given) | -6%
COc1ccc(S(=O)(=O)N(C)c2ccc(C(=O)NCc3ccncc3)cc2)cc1 | ?
COc1ccccc1NC(=O)C(=O)NCC(c1ccc2c(c1)OCO2)N1CCOCC1 (stereo not given) | -16%
O=c1[nH]c2ccccc2nc1CCc1ccccc1 | 7%
COC(=O)C(C)Oc1ccc(-c2nccc(-c3ccc(F)cc3)n2)cc1 (stereo not given) | 15%
COC(=O)C(C(=O)OC)c1ncc(C(F)(F)F)cc1Cl | 2%
CCCCCn1c(=O)[nH]c2cc(C(=O)NCCN(C)CCCC)ccc2c1=O | -1%
COc1cc(C(=O)N/C(=C\c2cn(C)c3ccccc23)C(=O)NCCCO)cc(OC)c1OC | -3%
CSc1sccc1/C=N/O | 5%
Cc1ccc(NS(=O)(=O)c2ccc(Cl)c(C(=O)Nc3ccccc3-c3nc4ccccc4[nH]3)c2)cc1C | 5%
O=C1CCCC(=O)C1C(c1ccc(Cl)cc1)C1C(=O)CCCC1=O | -25%
CCNc1nc(C)nc2c1oc1ccccc12 | 10%
O=C(O)c1ccc(NC(=O)[C@H](Cc2ccc(O)cc2)NC(=O)c2ccccc2)cc1 | 5%&-10%
O=C(Oc1c(Cl)cc(Cl)c2cccnc12)N1CCOCC1 | -2%
CCNc1ccc2noc3c2c1C(=O)c1ccccc1-3 | 9%
Cc1cc(NC(=O)C2=C(O)c3ccccc3S(=O)(=O)N2C)no1 | -6%&6%&12%
COc1ccccc1NC(=O)c1c(NC(=O)c2ccco2)sc2c1CCC(C(C)(C)C)C2 (stereo not given) | -16%
O=c1c2c3c(sc2nc2n1CCCCC2)C(O)CCC3 (stereo not given) | 6%
COc1ccc(-c2ccc(=O)n(CC(=O)Nc3nnc(C(C)C)s3)n2)cc1OC | 9%
Cc1c(Cl)cccc1NC(=O)CCN1CCC(C(N)=O)CC1 | -14%
CN1CCN(S(=O)(=O)c2ccc(SCCOc3ccccc3)nc2)CC1 | -4%
COCCCNC(=O)Cn1c(=O)n(CC(=O)N2CCCCC2)c(=O)c2sccc21 | -23%
COCCNC(=O)CSc1nc2ccc(N3CCOCC3)cc2c(=O)n1CCc1ccccc1 | -10%
CCOC(=O)c1cn(CC)c2ccc(S(=O)(=O)N3CCC(C)CC3)cc2c1=O | -7%
CCOC(=O)Cc1cnc(NC(=O)CSc2nc(C(C)C)cc(=O)[nH]2)s1 | 23%
COc1ccc(Nc2c3c(nc4ccc(NC(=O)/C=C/c5cc(OC)c(OC)c(OC)c5)cc24)CCCC3)cc1OC | 30%
COC(=O)C(C)Oc1ccc(Oc2nc(Cl)ccc2Cl)cc1 (stereo not given) | 0%
COc1cc(NS(=O)(=O)c2ccc(-c3ccc(=O)[nH]n3)o2)cc(OC)c1OC | -15%
O=C(c1cc2ccccc2oc1=O)N(Cc1cccs1)C1CCS(=O)(=O)C1 (stereo not given) | -6%
COc1ccc(Cn2nnnc2CN2CCC(O)(c3ccccc3F)CC2)cc1 | 1%
CCC1CCCCN1CC(O)Cn1c2ccccc2n2c(=O)cc(C)c(C#N)c12 (stereo not given) | 9%
COc1cc(OC)cc(-c2nc3n(n2)C(c2ccccc2)C(C(N)=O)=C(C)N3)c1 (stereo not given) | -10%
CNC(=O)c1cn(-c2ccccc2)c(=O)c2ccccc12 | 16%
Cc1nc2nc(-c3ccc(F)cc3)cn2nc1C | -8%
O=C(COc1ccccc1[N+](=O)[O-])Nc1cccc(Cl)c1N1CCOCC1 | 0%
O=C(NCC(c1ccc(F)cc1)N1CCOCC1)c1ccc(C(=O)c2ccccc2)cc1 (stereo not given) | 4%
CCOc1ccc2nc(N3CCC(C(=O)NCCCN4CCOCC4)CC3)sc2c1 | -6%
Cc1ccc(C)c(Cn2c(=O)cc(C)c3c(C)nn(-c4cccc(F)c4)c32)c1 | 0%
COc1ccc(/C=N/NC(=O)CN(C)C(=O)OCc2ccccc2)cc1OC | -6%
COc1ccccc1-n1c(=O)c2c3c(sc2n(Cc2ccccc2F)c1=O)CN(C(C)=O)CC3 | 4%
O=C(COc1cc2oc(=O)c3c(c2cc1Cl)CCCC3)NCC1CCC(C(=O)O)CC1 (stereo not given) | 10%
CCc1ccc(CSc2nccn2-c2ccccc2)cc1 | -9%
Cc1ccc2c(c1)[nH]c1c(=O)n(Cc3ccccn3)cnc12 | -15%
CCN1CCN(Cc2c(O)ccc3c(=O)c(Oc4ccccc4Cl)c(C(F)(F)F)oc23)CC1 | -3%
CC(C)CN(C(=O)c1cccs1)C1CCS(=O)(=O)C1 (stereo not given) | -8%
CCCN1CCc2c(sc3nc(SC)n(-c4ccccc4)c(=O)c23)C1 | 9%
Cc1ccc(OC(=O)C(C)c2cccc(C(=O)c3ccccc3)c2)cc1 (stereo not given) | 5%
O=C(Cc1cc(=O)[nH]c(=O)[nH]1)NCCN1CCOCC1 | -16%
CC(C)C(=O)Nc1ccc2nc(SCC(=O)N3CCc4ccccc43)sc2c1 | 4%
Cc1ccc(S(=O)(=O)N2CCCCC2)cc1NC(=O)C1=NN(c2ccccc2)C(=O)CC1 | 0%

# More records follow.
smiles | VDR inhibitor
COc1ccc(C(=O)Nc2nc(N)n(-c3ccccc3)n2)cc1OC | 5%
CCOc1cccc2sc(=NC(=O)CCS(=O)(=O)c3ccccc3)n(CC)c12 | ?
CCCOC1(NC(=O)c2ccccc2)C(C)=CC(=O)C=C1C | -3%
CC(=O)Nc1c(O)nc(SCC(=O)Nc2c(C)cccc2C)[nH]c1=O | -8%
CNc1ccccc1C(=O)OC(C)C(=O)Nc1ccc(S(=O)(=O)N2CCCC2)cc1 (stereo not given) | 3%
CCCCCCCCNC(=O)c1cnsn1 | -12%
CC(C)=CCC/C(C)=C/CNC(=O)C[C@H]1C[C@H](C(=O)N2CCCCC2)[C@@]2(C)c3[nH]c4ccc(Cl)cc4c3CCN2C1=O | -10%
Cc1noc(C)c1COC(=O)/C=C/c1ccccc1Cl | -7%
CCCc1c(C(=O)N/N=C/c2ccccc2OCc2ccc(F)cc2)nnn1-c1nonc1N | 4%
CCOc1cc2[nH]c(=S)n(CCCCC(=O)NCc3ccco3)c(=O)c2cc1OCC | 24%
Cc1ccc2oc(=O)n(CC(=O)c3ccc(F)cc3)c2c1 | -13%
CC(C)CN(C(=O)Cn1ccccc1=O)C1CCS(=O)(=O)C1 (stereo not given) | 7%

# Ordered by count of non-hydrogen atoms (lowest first): part of the list above
smiles | VDR inhibitor
CCCCCCCCNC(=O)c1cnsn1 | -12%
CCCOC1(NC(=O)c2ccccc2)C(C)=CC(=O)C=C1C | -3%
CNc1ccccc1C(=O)OC(C)C(=O)Nc1ccc(S(=O)(=O)N2CCCC2)cc1 (stereo not given) | 3%
CCCc1c(C(=O)N/N=C/c2ccccc2OCc2ccc(F)cc2)nnn1-c1nonc1N | 4%

# Later entries
smiles | VDR inhibitor
COC(=O)c1cc(S(=O)(=O)N2CCC(C(N)=O)CC2)oc1C | -26%
O=C(Nc1ccccc1N1CCN(c2ccccc2)CC1)C1CCCCC1 | -3%
COc1ccccc1N1CCN(S(=O)(=O)c2cc(-c3cc(C)no3)ccc2C(C)C)CC1 | 13%
O=C(O)C(c1ccccc1)C1(O)CCCCC1 (stereo not given) | -13%
Cc1ccc(S(=O)(=O)C2(C(=O)N3CCN(c4ccccc4F)CC3)CC2)cc1 | 10%
O=C(Nc1cccc(C(F)(F)F)c1)C1CCCN(S(=O)(=O)c2cccc3nonc23)C1 (stereo not given) | 4%
N=C1S/C(=C\c2ccco2)C(=O)N1c1nccs1 | 6%
CC(C)(C)C(=O)/C=C/c1ccc(Oc2ccccc2)cc1 | -20%
CCOC(=O)c1ccc(N2CN(C3CCCCC3)CNC2=S)cc1 | -20%
CCOc1ncccc1C(=O)N=C1SCCN1C(=O)c1cccnc1OCC | -1%
O=C(NCC(c1cccnc1)N1CCc2ccccc2C1)C(=O)Nc1ccc(F)cc1F (stereo not given) | 6%
CCOC(=O)c1c(S(=O)(=O)N2CCCC(C(=O)NCc3ccccc3OC)C2)c(C)n(C)c1C (stereo not given) | 26%
Cn1ccc(NC(=O)Nc2cccc(C(F)(F)F)c2)n1 | -21%
Cc1ccccc1OCC(=O)N/N=C/c1ccc(Sc2nc3ccccc3s2)o1 | 9%
O=C(COC(=O)c1ccc(S(=O)(=O)N2CCCCC2)cc1)NCc1ccccc1 | -14%
CC1(C)C2CCC1(CS(=O)(=O)N1CCOCC1)C(=O)C2 (stereo not given) | 3%
O=C(c1cc2nc(-c3ccccc3)cc(-c3ccccc3)n2n1)N1CCCC1 | -4%
O=C(c1ccc(Cn2cc(Br)cn2)cc1)N1N=C(C(F)F)CC1(O)C(F)F (stereo not given) | 8%
O=C1OCC/C1=C\c1ccc(O)cc1 | -4%
c1ccc(-c2ccc(C3CCCN3)cc2)cc1 (stereo not given) | 19%
COc1ccc(CNC(=O)CN(Cc2ccc(OC)cc2)C(=O)c2csnn2)cc1 | -5%
Cc1ccc(C)c(N2CCN(C(=O)Cn3cccc3)CC2)c1 | 10%
CCOC(=O)c1sc(NC(=O)/C=C/c2ccc(F)cc2)nc1C | -13%
COc1ccc(C(=O)OCC(=O)c2ccccc2)cc1S(=O)(=O)N1CCOCC1 | -2%
O=C(N/N=C/c1ccco1)c1cc([N+](=O)[O-])cc([N+](=O)[O-])c1 | 3%
CCN(C(=O)COC(=O)c1cnc(C)cn1)C1CCCCC1 | 11%
CC(C)(C#N)NC(=O)C1CCCN1S(=O)(=O)c1ccc2ccccc2c1 (stereo not given) | 7%
COc1cc(C(=O)NCC2CCCO2)ccc1OCc1ccc(Cl)cc1 (stereo not given) | -2%
COC(=O)[C@H](CCSC)NC(=O)Nc1ccc(C)cc1 | 7%
O=S1(=O)CCOCCCN1Cc1ccc(Cl)cc1 | 0%
CC1=C(C(=O)OCC(C)C)C(c2ccsc2)C2=C(CCCC2=O)N1 (stereo not given) | -26%
CN(C)CC(C)(C)CNC(=O)c1cc(=O)c2ccccc2o1 | 6%
O=C(CN1C(=O)S/C(=C\C=C\c2ccccc2)C1=O)NC1CCS(=O)(=O)C1 (stereo not given) | ?
COc1ccc(Nc2nc(N(C)c3ccccc3)nc(N)c2[N+](=O)[O-])cc1 | 2%
CCC(=C/c1sc2ccc3ccccc3c2[n+]1C)/C=C1\Sc2ccc3ccccc3c2N1C | ?
CC1(C)CC(=O)C2=C(C1)N(CCN1CCOCC1)C1=C(C(=O)CC(C)(C)C1)C2c1ccc(Cl)cc1 | -7%
C=CCNC(=O)Nc1ccc(F)cc1F | 13%
CC1CCCC(NC(=O)c2n[nH]c(=O)c3ccccc23)C1C (stereo not given) | 8%
N#Cc1ccc(S(=O)(=O)N2CCN(C(=O)[C@@H]3CCCN3C(=O)c3cccs3)CC2)cc1 | -3%
Cc1nn2c(=O)cc(CSc3ccccc3NC(=O)c3ccccc3)nc2s1 | -14%
CCOc1ccc2[nH]c3c(NCCOC)ncnc3c2c1 | 22%
Cc1ccn2c(Nc3c(C)cccc3C)c(-c3ccc(Cl)s3)nc2c1 | -5%
COc1ccc(-c2cc(C(=O)Oc3ccc([N+](=O)[O-])cc3)c3ccccc3n2)cc1 | ?
NCCCC[C@H]1CNC(=O)C(=O)N1CC1CCCCC1 | 1%
CCc1nnc2c3ccccc3nc(N3CCN(c4cc(C)ccc4C)CC3)n12 | 6%
CCC(C)c1ccccc1NC(=O)c1cccc(-n2cnnn2)c1 (stereo not given) | 8%
Cc1ccc(-c2cc3ccccc3nc2N2CCCC2)cc1 | 6%
CCOCCCNC(=O)Cc1ccc(-n2c(CC)nc3cccnc32)cc1 | 1%
O=C(c1cc(-c2ccc(Cl)cc2Cl)on1)N1CCCC1 | 13%
O=C(COC(=O)C12CC3CC(CC(Cl)(C3)C1)C2)N1CCCCC1 | 5%

# Bioassay records from PubChem.

# Some of the compounds tested; count on the stated rates, not on these rows.
